# Bioassay records deposited in PubChem BioAssay by Fisher Drug Discovery Resource Center.
# NPYLR7 ag – mosquito NPYLR7 agonism; HEK293T NPYLR7/Galpha15, GCaMP6s calcium fluorescence; activation, % at 10 µM; 270,000 tested, 0.15% active; in the data active = activation above about 40%;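 note: 0% = vehicle and 100% = reference agonist at the receptor; some compounds past the cut are filed as inactive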
# NPYLR7 ag max-min – recorded beside NPYLR7 ag, whose call it bears; activation, %; measured here: Max-Min RFU normalised activation; some inactives read as strong as hits;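 span of the calcium signal over five minutes; 0% = vehicle and 100% = native peptide agonist; compound fluorescence can raise it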
# Starred values were filed as active, the others as inactive; & = joins results of further samples.
SMILES,NPYLR7 ag,NPYLR7 ag max-min
CC(C)(C)c1ccc(CNCCN2CCCC2)cc1,0,4
O=C(Nc1ccc2c(c1)CN(S(=O)(=O)N1CCOCC1)CC2)C1(c2ccccc2)CC1,8,6
Cc1ccc(S(=O)(=O)Oc2ccc(N(C)C(=O)NC(C)C)cc2)s1,-8,-9
Cc1cscc1C(=O)Nc1ncnn1C,4,-6
Cn1ncc([N+](=O)[O-])c1C(=O)Nc1ccccc1Cl,-3,-5
Cc1cc(C)n(-c2cncc(NC3CCN(C)C3=O)n2)n1 (stereo not drawn),4,1
Cc1cc(C)n2c(NC(C)(C)CC(C)(C)C)c(-c3ccccc3)nc2c1,-5,3
CCCNC(=O)C1CCCN(c2nc3ncn(CC(=O)Nc4ccc(Cl)cc4)c(=O)c3s2)C1 (stereo not drawn),-4,3
CCC1CC(C)CN1CCC(=O)N1CCOCC1 (stereo not drawn),-3,-6
O=C(NCCCc1ccccc1)N1CCN(C(c2ccccc2)c2ccc(Cl)cc2)CC1 (stereo not drawn),-4,10
COc1ccccc1OCCn1c(SCCOc2ccccc2)nc2ccccc21,-3,-3
CCCN(CC(=O)Nc1cc(C(C)(C)C)nn1-c1cccc(C)c1C)C(=O)C1CCCCC1,4,14
O=S(=O)(Nc1ccc(Cl)c(Cl)c1)c1cccs1,6,2
C=CCNc1ccccc1C(=O)NCc1cc(-c2cccnc2)no1,14,1
C=CCn1c(=O)n(CC=C)c(=O)n(Cc2cc(Cl)c3c(c2)OCCO3)c1=O,11,6
CCc1ccc(C(C)(C)CNC(=O)NCc2noc(C)n2)cc1,2,0
Cc1ccc(C2=Nc3ncnn3C(c3cccc4ccccc34)C2)cc1 (stereo not drawn),4,1
COc1ccc(CC2CCN(S(=O)(=O)c3ccc(Cl)cc3)CC2)cc1,1,-2
O=C(NCc1ccc(F)cc1)N1CCC2(CC1)OCCc1c2[nH]c2ccccc12,0,14
CC(C)(C)c1cc(/C=N\NC(=O)CSc2nc3ccccc3[nH]2)cc(C(C)(C)C)c1O,-9,-12
Cc1noc(C)c1N(C)S(=O)(=O)c1cc(C(F)(F)F)cc(C(F)(F)F)c1,-2,-7
NC(N)=NC(N)=Nc1ccc(F)cc1,-1,-5
Cc1cc(N2CCN(C(C)C(=O)Nc3cccc(Cl)c3C)CC2)nc(C(C)C)n1 (stereo not drawn),-1,27
Cc1cccc(Cn2c(SCCN3CCCCC3)nc3c2c(=O)[nH]c(=O)n3C)c1,0,38
C=CCC(O)(CC=C)C(C)N (stereo not drawn),-13,-21

# Continued:
SMILES,NPYLR7 ag,NPYLR7 ag max-min
CC(NC(=O)C1CCN(Cc2ccccn2)CC1)c1cccc2ccccc12 (stereo not drawn),11,0
O=c1c2nc(N3CCCC3)sc2c(-c2ccco2)nn1Cc1cccc2ccccc12,-4,-7
CCn1nnc2c(NCCc3ccccc3OC)ncnc21,1,8
COc1ccc2oc(=O)c(C(=O)OC(C)C)cc2c1,5,2
CS(=O)(=O)N1CCN(C(C#N)c2c(F)cccc2Cl)CC1 (stereo not drawn),-1,-1
O=C(CN1CCCC1)N1N=C(c2cccc(F)c2)CC1c1ccc2c(c1)OCO2 (stereo not drawn),-2,4
CNc1ncc(CN(C)c2nccc(CCC(F)(F)F)n2)cn1,10,6
COc1ccccc1-c1nnc(SCC(=O)c2ccccc2)n1C,0,-2
Cn1nc(C(=O)N(Cc2ccccn2)Cc2ccco2)c2c1CCCC2,-6,-9
CC(CO)CN(Cc1ccccc1)Cc1cc2ccc(F)cc2[nH]c1=O (stereo not drawn),-8,-10
O=C(CCN1CCc2sccc2C1c1cccc(F)c1)N1CCN(C(=O)c2ccc(Cl)cc2Cl)CC1 (stereo not drawn),14,2
Cc1sc2nc(CCc3ccccc3)nc(N3CCN(C(=O)C4C[C@H]4c4ccccc4)CC3)c2c1C (stereo partly drawn),-1,3
Cc1[nH]cnc1CN1CCOC(CCNC(=O)c2ccsc2)C1 (stereo not drawn),-3,-11
Cc1cccc(CNC(=O)c2cc(N3CCCC(C)C3)nc3ccccc23)c1 (stereo not drawn),6,-4
NS(=O)(=O)c1ccc(OC(=O)CNC(=O)OCc2ccccc2)cc1,-7,-9
O=C(Cc1c[nH]c2ccccc12)N1CCc2c(ncnc2N2CCOCC2)C1,4,0
CC(=O)CSc1ncnc2c1nnn2Cc1ccc(C)cc1,15,16
C=CCn1c(N)c(C(=O)N2CCCC2)sc1=S,-2,-5
CC1OC(=O)C23C4(C)CC5OC56C(=CC(=O)OC6(C)C)C45CC(C)(C4(O)OC5(C)OC142)C31CO1 (stereo not drawn),-10,-18
COc1cc(OC)nc(C(NC(=O)C2CCN(CC(=O)C(C)(C)C)CC2)c2ccccc2C)n1 (stereo not drawn),-8,-3
COc1ccc(CNC(=O)c2cccnc2N2CCN(S(=O)(=O)c3cccc(Cl)n3)CC2)cc1,29,35
O=c1c2nnn(-c3cccc(F)c3)c2ncn1Cc1ccccc1,-2,-8
CC(C)CCC(=O)N1CCC2(CCCN(Cc3cnn(C)c3C3CC3)C2)C1 (stereo not drawn),5,1
Cc1ccn(CCC(=O)NCc2cccnc2N2CCCCCCC2)n1,19,12
CCN1CCN(CC2(O)CCCN(CCCc3ccccc3)C2=O)CC1 (stereo not drawn),-1,-3

# Continued.
SMILES,NPYLR7 ag,NPYLR7 ag max-min
CCCC(=O)NNC(=O)c1ccc(=O)n(Cc2ccc(Cl)cc2)c1,-9,-18
O=C(NCCc1ccc(F)cc1)c1cn(C2CCCC2)cc(C(=O)N2CCCCC2)c1=O,17,7
CN(CCc1cnn(C)c1)c1nc2nonc2nc1NC1CCCC1,-2&10,-8&5
CCCN1CCCC1C(=O)NCC(C)(O)c1ccc(F)cc1F (stereo not drawn),0,6
Cc1oc(C)c(C(=O)OC(C)C(=O)N2CC(C)OC(C)C2)c1Br (stereo not drawn),12,8
Cc1cccc(NC(=O)CNC(=O)CC2Sc3ccc(C(F)(F)F)cc3NC2=O)c1C (stereo not drawn),13,17
COc1ccccc1C(O)(C(=O)NNc1cccc(C)c1)c1ccccc1OC,-6,-8
CCOC(=O)c1c(SC(C)C)nc(=O)[nH]c1C,3,8
O=C(CSc1ncnc2c1cnn2-c1ccccc1)NC1CCCCC1,5,1
Cc1ccc2c(c1)c(N=NC(=O)COc1ccc3ccccc3c1)c(O)n2C,8,-5
CC(=O)N1CCC(C(=O)N2CCCC(Nc3ccc(C)c(C)c3)C2)CC1 (stereo not drawn),20,9
Cc1cc(C)n(CC(O)Cn2c3c(c4cccc(Cl)c42)CCCC3)n1 (stereo not drawn),7,6
CC(C)N(CC(=O)N(CCc1c[nH]c2ccccc12)Cc1ccccc1)C(=O)c1ccc(-c2ccccc2)cc1,15,12
Cc1cc(C)c2c(N)c(-c3cc(=O)oc4ccc(O)cc34)sc2n1,3,1
O=S(=O)(c1cc(Cl)cc(Cl)c1O)N1CCOCC1,0,-4
CC1=C(C(N)=O)C(c2ccc(Cl)cc2)NC(=O)N1 (stereo not drawn),4,4
Cc1ccc(S(=O)(=O)Nc2cccc(-c3ccc4nncn4n3)c2)cc1C,-11,-4
Cc1scc(CN2CC(C)CC(C)C2)c1C (stereo not drawn),2,0
CCN(CC)c1ccc(C(=O)NNS(=O)(=O)c2ccc(F)cc2F)cc1,9,2
CCCCCNC(=O)c1ccc2c(c1)C(=O)N(Cc1ccco1)C2=O,4,9
Fc1ccc(C2=Nc3nnnn3C(c3cccs3)C2)cc1 (stereo not drawn),4,3
O=C(Cn1cc(SCC(=O)N2CCc3ccccc32)c2ccccc21)N1CCOCC1,-5,-8
CCOC(=O)CC(=O)N1CCC(n2cnc3ccc(C)cc32)CC1,-3,-1
COc1ccc(-c2ccc3[nH]nc(N)c3c2)cn1,22,15
NC(=O)N/N=C(\c1ccccc1)C(F)(F)C(F)(F)OC(F)(F)F,6,-2

# 4 records picked at random from the list so far, as already listed:
SMILES,NPYLR7 ag,NPYLR7 ag max-min
CCOC(=O)CC(=O)N1CCC(n2cnc3ccc(C)cc32)CC1,-3,-1
Cc1noc(C)c1N(C)S(=O)(=O)c1cc(C(F)(F)F)cc(C(F)(F)F)c1,-2,-7
CC(CO)CN(Cc1ccccc1)Cc1cc2ccc(F)cc2[nH]c1=O (stereo not drawn),-8,-10
Cc1cscc1C(=O)Nc1ncnn1C,4,-6

# More entries.
SMILES,NPYLR7 ag,NPYLR7 ag max-min
O=S(=O)(c1cccs1)N1CCN(Cc2nnnn2-c2ccc(Cl)cc2)CC1,1,-1
FC(F)(F)c1cccc(-c2cnc3ccc(NCc4ccc5c(c4)OCO5)nn23)c1,-3,-6
Cc1ccccc1C1CC(=O)c2c(C)nc(N)nc2C1 (stereo not drawn),16,13
Cc1nnc(SCc2nc(C(=O)N3CCN(c4cccc(C(F)(F)F)c4)CC3)cs2)n1-c1ccccc1,5,9
CCOC(=O)c1c(N)sc2c1CC(C)(C)NC2(C)C,10&2,4&-1
CCCn1cc(C2CCN(C(=O)c3ccccc3OC(F)(F)F)CC2)c2ccccc21,1,2
O=C(COc1cccc(Cl)c1)N1CCC(Cc2ccc(-c3ccccc3)cc2)CC1,2,10
Cc1cncc(NCc2cccc(Cl)c2)n1,-3,-3
O=C(CC(c1cccc([N+](=O)[O-])c1)c1c[nH]c2ccccc12)N1CCN(Cc2ccc3c(c2)OCO3)CC1 (stereo not drawn),28,28
CC1(C)OCC(CNC(=O)c2ccccc2F)O1 (stereo not drawn),-14,-17
CC(C)C(=O)N1CCCC1(C)C(=O)NCc1ccccn1 (stereo not drawn),-4,-4
CCC(C)N(Cc1ccc(OC)c(OCc2nc(CO)cs2)c1)C(=O)COC (stereo not drawn),25,36
CCN1C(=S)NC(c2ccc(NC(=O)Nc3ccc(OC)cc3OC)cc2)C(C(=O)OCC(C)C)=C1C (stereo not drawn),-3,1
CS(=O)(=O)N1CCc2cc(C3=NNC(=Nc4ccc(Cl)cc4)SC3)ccc21,1,-3
CC(=O)NCCc1c(Cc2ccccc2)[nH]c2ccccc12,-17,-22
O=C(CCc1cc2c(n1-c1ccc(Cl)cc1)-c1ccccc1OC2)NCc1cccc(Cl)c1,1,0
COc1cc(C2Nc3ccccc3N=C3CC(c4ccccc4)CC(=O)C32)ccc1O (stereo not drawn),3,2
Cc1ccc(C(=O)N2CCN(c3nc(-c4cccc(Br)c4)nc4ccccc34)CC2)cc1,19,22
O=C1c2cccc3c(N4CCOCC4)ccc(c23)C(=O)N1/N=C\c1ccccc1,-7,-11
CN(CCCn1ccnc1)C(=O)Nc1cccc(Oc2ccccn2)c1,4,0
Cc1[nH]ncc1CN(CC(=O)NCCCOC(C)c1ccccc1)c1ccc(O)cc1 (stereo not drawn),-10,-12
Cc1cc(C)n(CCNC2CCN(c3ccc(C(=O)N4CCOCC4)cc3)CC2)n1,16,22
CCOC(=O)C1=C(C)N=c2s/c(=C\c3ccc(F)cc3)c(=O)n2C1c1ccc2c(c1)OCO2 (stereo not drawn),-2,-3
O=C1/C(=C/c2ccc(Cl)cc2)C=C(c2ccccc2)N1c1ccc(Nc2ccccc2)cc1,1,12
CNc1nc(NC(C)(C)C)nc(Oc2ccc(C=O)cc2)n1,3,2

# (list continues)
SMILES,NPYLR7 ag,NPYLR7 ag max-min
CCn1c(SCC(=O)c2cc(C)n(-c3cc(C)on3)c2C)nnc1-c1cccs1,4,8
COc1ccc(CCNC(=O)COc2ccc(SC)cc2)cc1OC,15,7
Cc1cccc(CN(CC(O)COc2ccc(Cl)cc2)C2CC2)c1 (stereo not drawn),23,32
COc1cc(OC)cc(C(=O)N2CCN(Cc3cc(=O)c(OCc4ccc(SC)cc4)co3)CC2)c1,-5,2
Cc1cc(N2CC(c3ccncc3)C2)nc2cc(Cl)ccc12,-4,-7
COCc1c(Br)c(C)nc(OCC(=O)N/N=C\c2ccccc2O)c1C#N,-8,-10
C=CCOC(=O)C1=C(C)N(CC)C(=O)NC1c1ccc([N+](=O)[O-])cc1 (stereo not drawn),-3,-8
CCCCNC(=O)c1nn(-c2ccccc2)c(=O)cc1OC,0,-1
COc1ccc(NC(=S)N2CCC(C(=O)NC(c3ccccc3C)c3ncccc3C)CC2)cc1 (stereo not drawn),-1,-14
CCOC(=O)c1cc(-c2cccc(NC(=O)c3cccc(OC(C)=O)c3C)c2)n(-c2ccccc2OC)n1,25,12
COc1ccc2cc(C(=O)C3CCCN(C(=O)c4cnn(C(C)C)c4)C3)ccc2c1 (stereo not drawn),2,-1
Cc1ccccc1-c1ncc(-c2nccn2Cc2cccnc2)s1,2,-4
CN(CCc1ccncc1)C(=O)C(c1ccccc1)N1CC2(C)CC1CC(C)(C)C2 (stereo not drawn),3,2
Cc1nn(C)c(C)c1C(=O)N1CCCC(O)(C(F)(F)F)C1 (stereo not drawn),-3,-3
O=C(CN1C(=O)NC2(CCCc3ccccc32)C1=O)NC1C2CC3CC(C2)CC1C3 (stereo not drawn),1,0
Cc1ccc(-c2ccnc(NCCc3c(C)n[nH]c3C)n2)c(C)n1,19,6
CCOC(=O)c1ccc2c(c1)nc(SCc1cc(F)ccc1C)n2Cc1ccccn1,4,0

# Another view of part of the listing above.
SMILES	NPYLR7 ag	NPYLR7 ag max-min
Cc1nn(C)c(C)c1C(=O)N1CCCC(O)(C(F)(F)F)C1 (stereo not drawn)	-3	-3
O=C(CN1C(=O)NC2(CCCc3ccccc32)C1=O)NC1C2CC3CC(C2)CC1C3 (stereo not drawn)	1	0
Cc1ccc(-c2ccnc(NCCc3c(C)n[nH]c3C)n2)c(C)n1	19	6

# In the list so far, 3 contain bromine.
SMILES,NPYLR7 ag,NPYLR7 ag max-min
Cc1oc(C)c(C(=O)OC(C)C(=O)N2CC(C)OC(C)C2)c1Br (stereo not drawn),12,8
Cc1ccc(C(=O)N2CCN(c3nc(-c4cccc(Br)c4)nc4ccccc34)CC2)cc1,19,22
COCc1c(Br)c(C)nc(OCC(=O)N/N=C\c2ccccc2O)c1C#N,-8,-10

# A portion of the library; the hit share may differ from the screen's.
